# Arbovirus inh – blocks arbovirus infection; AID 1251; arbovirus infection cell-based antiviral screen; hit rate 0.37% among 200,000; inhibition, % at 10 µM;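 active means inhibition from about 30%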;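 further: bluetongue infection of BSR cells; cell survival read as ATP light after 72 h; 0% = infected wells without compound and 100% = uninfected wells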
# YopH inh – inhibitors of Yersinia enterocolitica YopH tyrosine phosphatase. fluorescence Ex485/Em525. inhibition, %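 (about 10 µM by stock and volumes)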. hit rate 0.16% among 140,000;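 active means inhibition of 50% or more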;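 further: controls were vehicle for no effect and minimum signal wells for full effect; inactives centre near -20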
# Mtb H37Rv – M. tuberculosis H37Rv growth inhibitors, H37Rv strain (AID 1626); M. tuberculosis H37Rv growth inhibition; higher % means a stronger effect; hit rate 0.95% among 220,000; inhibition, % at 10 µM, or IC50 in µM where a hit was titrated;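 active means confirmed in a dose series; inconclusive means inhibition above 80% but not taken into the dose series; inactive means below 80% or under 30% at every dose of the series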;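 further: bacteria incubated seven days before Alamar blue readout; 0% = bacteria only wells and 100% = bacteria with antibiotic wells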
# Mtb bLac sens – beta-lactam sensitization of Mtb H37Rv; AID 434955; M. tuberculosis H37Rv growth with meropenem, percent inhibition; hits of this screen are not shown here; inhibition, % at 25 µM; hit rate 0.27% among 330,000;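 active means about 74% or more and at least 40 points above the plate without the antibiotic, then above 30% in a dose series; inconclusive means first-round hits that could not be retested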;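 further: growth measured after seven days incubation then overnight dye step; 0% = bacteria only wells and 100% = bacteria with antibiotic; twin plates without the antibiotic show which effects depend on it; some results filed as inactive read as strong as hits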
# RecA splice inh – blocks M. tuberculosis RecA intein splicing; AID 2221; cell-free RecA intein splicing, fluorescence; hit rate 0.75% among 290,000; P9WHJ3; inhibition, %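 (about 9 µM by stock and volumes)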; in the data active means inhibition above about 30%; inconclusive means no clear call, values can overlap the other calls;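 further: 0% = vehicle wells and 100% = reference inhibitor control wells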
# Target sequence (P9WHJ3 whole entry, looked up, canonical isoform): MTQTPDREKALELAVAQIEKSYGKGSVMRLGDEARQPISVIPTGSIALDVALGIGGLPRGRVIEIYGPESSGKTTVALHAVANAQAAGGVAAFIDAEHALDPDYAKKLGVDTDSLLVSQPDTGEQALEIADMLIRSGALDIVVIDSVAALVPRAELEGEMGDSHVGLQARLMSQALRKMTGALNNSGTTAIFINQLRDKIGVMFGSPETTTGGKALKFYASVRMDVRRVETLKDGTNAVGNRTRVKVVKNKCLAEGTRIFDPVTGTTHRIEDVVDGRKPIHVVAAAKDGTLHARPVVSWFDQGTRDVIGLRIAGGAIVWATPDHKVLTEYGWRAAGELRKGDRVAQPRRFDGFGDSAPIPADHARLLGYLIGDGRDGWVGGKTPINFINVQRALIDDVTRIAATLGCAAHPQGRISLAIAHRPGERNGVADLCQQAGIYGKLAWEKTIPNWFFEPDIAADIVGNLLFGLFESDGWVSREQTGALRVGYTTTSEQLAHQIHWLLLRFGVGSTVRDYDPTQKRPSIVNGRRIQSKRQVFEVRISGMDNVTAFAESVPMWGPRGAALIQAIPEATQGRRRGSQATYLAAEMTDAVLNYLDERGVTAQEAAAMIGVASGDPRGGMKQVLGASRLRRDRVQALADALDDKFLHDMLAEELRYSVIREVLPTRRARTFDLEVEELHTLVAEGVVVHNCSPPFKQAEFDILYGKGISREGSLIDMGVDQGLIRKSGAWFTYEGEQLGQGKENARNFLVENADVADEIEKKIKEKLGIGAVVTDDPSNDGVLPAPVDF
# Arbovirus inh repeat – also measured in Arbovirus inh; calls as there; inhibition, %; measured here: 10K subset replicate screen; many hits read low in the repeat;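 first of two repeat runs on a subset; 0% = infected and 100% = uninfected wells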
# * marks the source's active call; other numbers are inactive results; ? = inconclusive; . = no result given. Only part of the results is shown; count on the stated rates, not on these rows.
# Sample of the layout (3 entries):
SMILES,Arbovirus inh,YopH inh,Mtb H37Rv,Mtb bLac sens,RecA splice inh,others
COc1ccccc1C(=O)Nc1ccc(S(=O)(=O)Nc2onc(C)c2C)cc1,.,.,-3%,-5,0.5,
COc1ccc(NC(=S)Nc2ccccc2)c(OC)c1,28,.,-8%,-1,0.8,
CN(C)c1ccc(C(=S)NCc2ccco2)cc1,-6,13,4%,44,-3.6,

# Main list (from the top)
SMILES,Arbovirus inh,YopH inh,Mtb H37Rv,Mtb bLac sens,RecA splice inh,others
COc1ccccc1C(=O)Nc1ccc(S(=O)(=O)Nc2onc(C)c2C)cc1,.,.,-3%,-5,0.5,
COc1ccc(NC(=S)Nc2ccccc2)c(OC)c1,28,.,-8%,-1,0.8,
CN(C)c1ccc(C(=S)NCc2ccco2)cc1,-6,13,4%,44,-3.6,
CC(=O)c1ccc(C(=O)NC2CCCN(Cc3ccc(Cl)cc3)C2)s1 (stereo not drawn),.,.,.,-6,-0.6,
CC1CCN(c2c(NCC3CCC(C(=O)NCc4ccccc4)CC3)c(=O)c2=O)CC1 (stereo not drawn),-8,-27,.,-6,-1.0,
Cc1cccc(-c2c3c(=O)n(C)c(=O)n(C)c3cn2-c2ccccc2O)c1,-8,-51,-7%,0,2.2,
Cc1ccc(N(CC(=O)NCc2ccccc2)C(=O)CCC(=O)Nc2nccs2)cc1,.,.,.,12,0.4,
COc1cc2ncnc(NCc3ccc(C)o3)c2cc1OC,0,.,2%,-9,-2.7,
COc1cc(/C=N/N2CCN(Cc3ccc(Cl)cc3)CC2)ccc1OC(C)=O,.,.,.,-3,-2.5,
CC(NC(=O)C1CCCCC1)C(c1cccs1)N1CCOCC1 (stereo not drawn),.,.,2%,9,1.0,
Cc1ccc(-c2nn(-c3cc(N4CCNCC4)ccc3[N+](=O)[O-])c(=O)c3ccccc23)cc1,-22,.,?,96,3.7,
Cn1cccc1Cc1nnc(SCC(=O)N2CCCC2)n1CCc1ccccc1,0,-21,-2%,0,1.1,Arbovirus inh repeat=6
O=C(NCCSc1ccc(Cl)cc1)c1ccco1,3,-24,-6%,3,5.4,
Cc1ccc(S(=O)(=O)/N=C(/c2ccccc2)N2CCOCC2)c(C)c1,3,.,3%,-4,3.2,
COc1ccccc1N(C)S(=O)(=O)c1ccc(C(=O)N2CCC(C(N)=O)CC2)cc1,-1,-4,-4%,13,1.0,
S=c1[nH]nc(-c2n[nH]c3c2CCC3)n1/N=C/C=C/c1ccccc1,.,.,-2%,3,3.3,
CCN(CC)CCn1c(SCC(=O)NCc2ccco2)nc2c(sc3ccccc32)c1=O,-7,8,7%,11,0.1,
c1ccc(Nc2nc(N3CCCCC3)nc(N3CCNCC3)n2)cc1,-30,-52,60%,100,4.5,Arbovirus inh repeat=-27
COc1cc(SC)ccc1C(=O)Nc1cc(C)ccn1,14,.,2%,47,1.2,
COc1ccc(C(Nc2ccc(S(=O)(=O)N3CCOCC3)cc2)C(=O)NCCC(C)C)cc1OC (stereo not drawn),.,.,.,1,-0.3,
CCCN(CC1CC1)C(=O)CSc1ncnc2sccc12,0,.,3%,18,0.5,
COc1ccc(NC(=O)c2cncc(Br)c2)c(S(=O)(=O)N2CCOCC2)c1,16,-26,-3%,-7,-0.5,Arbovirus inh repeat=6
Cc1cc(C)cc(N2C(=O)CC(Sc3nnnn3-c3ccccc3)C2=O)c1 (stereo not drawn),-2,-9,4%,27,.,
CC(=O)c1ccc(OCc2cc(C(=O)N(C)C3CCOC3)no2)cc1 (stereo not drawn),.,.,.,5,0.4,
O=C1NC(=O)C(CCc2ccncc2)(CCc2ccncc2)C(=O)N1CCc1ccccc1,4,.,0%,-12,0.0,
CCN=c1sc(C(=O)NCCc2ccccc2)cc(=O)n1CC,-11,-19,2%,0,1.6,
COc1ccc(F)cc1C(=O)C1CCCN(C(=O)C2=C(C)OCCO2)C1 (stereo not drawn),5,.,6%,2,-3.5,
CC(/C=N/N1CCN(c2ccccc2)CC1)=C\c1ccco1,-7,-1,3%,-6,3.1,
CCOC(=O)CCc1c(C)c2ccc(OCc3cc([N+](=O)[O-])ccc3OC)c(C)c2oc1=O,-11,-6,1%,-4,2.1,
Cc1nc(/C=C\C(=O)O)c2cc(C)oc2n1,4,.,-3%,-6,-0.5,
O=S(=O)(/C=C/c1ccccc1)N1CCN(c2nc(-c3cccnc3)nc3ccccc23)CC1,9,.,5%,0,6.4,
COC(=O)CN(c1ccc(C)cc1)S(=O)(=O)c1c(C)[nH]c(=O)[nH]c1=O,9,-7,-3%,0,3.8,
COC(=O)c1sc(N(C)C)c(C#N)c1-c1ccccc1,.,.,-2%,0,1.2,
Cc1cc(C)cc(NC(=O)CN2CCN(c3ccccn3)CC2)c1,.,.,.,3,0.0,
Cc1ccc(S(=O)(=O)c2nc(S(=O)(=O)c3ccc(C)cc3)c(N3CCN(CCO)CC3)s2)cc1,.,.,.,9,2.7,
Cc1ccc(S(=O)(=O)/N=C(/c2ccccc2)N(C)c2ccc(O)cc2)cc1,4,.,-12%,-4,0.2,
C#CCOCCOCCOCCNc1nc(N2CCOCC2)nc(N2CCN(C(=O)[C@H]([C@@H](C)CC)n3cc([C@@H](N)CC(C)C)nn3)CC2)n1,1,.,6%,-19,1.2,
S=C(NC1CCCC1)NC1CCCC1,1,.,1%,2,0.8,
Cc1[nH]cc(Br)c(=O)c1Oc1ncc(C(F)(F)F)cc1Cl,5,.,.,-7,2.5,
CCCC(CCC)C(=O)OC[N+](C)(C)CCOC(=O)C(O)(c1ccccc1)C1CCCC1 (stereo not drawn),2,.,0%,-5,0.7,
Cc1ccc(CC(=O)Nc2ccc(Cl)cn2)cc1,.,.,.,2,0.2,
Cn1ccc(C(=O)Nc2sc3c(c2C#N)CCC3)n1,.,.,.,-3,-4.2,
COc1ccc(NC(=O)CSc2nc3sc(C)cc3c(=O)n2C)cc1,.,.,.,1,1.3,
CCOc1ccc(N2CC(C(=O)NCc3cccc(C)c3)CC2=O)cc1 (stereo not drawn),-1,-37,6%,-6,0.3,
COc1ccc(CNc2nc(NCc3ccc(OC)c(OC)c3)n(C(=O)c3cccs3)n2)cc1OC,5,-50,-2%,0,3.0,
Cc1ccc(-c2nnc(-c3ccccc3)o2)cc1,-5,-12,-5%,16,-0.8,
COC(=O)[C@@H]1C[C@]2(C(=O)O)c3ccccc3N(OOSc3ccccc3)[C@@H]2N1C(=O)OC,.,.,-4%,-16,-2.6,
Brc1ccccc1CN1CCN(Cc2c[nH]c3ccccc23)CC1,.,.,.,1,3.9,
Cc1ccc(C(=O)Nc2ccc(NC(=O)c3ccc(C)o3)cc2)o1,.,.,.,-3,5.4,
C/C(CC(=O)NC(C)(C)C)=N\NC(=O)c1ccco1,-12,-18,2%,-5,-2.2,
COC(=O)c1cc(NC(=O)Cc2cc(OC)c(OC)c(OC)c2)cc(C(=O)OC)c1,16,.,-2%,-6,2.9,
CCN(CC)C(=O)COc1coc(CN2CCN(c3ccccc3)CC2)cc1=O,.,.,.,-1,-0.7,
O=C(CCCc1nc2ccccc2s1)Nc1ccc(N2CCOCC2)cc1,-19,.,-1%,-4,-0.8,
O=C1CCc2cc(S(=O)(=O)Nc3ccc(F)cc3)cc3c2N1CC3,.,.,.,-8,0.1,
O=C(CS(=O)(=O)c1ccccc1)c1cc2ccccc2oc1=O,.,.,.,5,1.6,
COc1ccc(C(C)(C)C)cc1NC(=O)COC(=O)C(C)C,7,.,6%,-6,0.5,
O=S(=O)(c1ccc(Cl)cc1)N1CCCC(C(F)(F)F)C1 (stereo not drawn),1,.,3%,15,-2.6,
O=C(C(c1ccccc1)c1ccccc1)N1CCOCC1,1,-68,-2%,4,-0.1,Arbovirus inh repeat=4
CCOc1ccc(S(=O)(=O)Nc2ccc(S(=O)(=O)Nc3cc(OC)ccc3OC)cc2)cc1,14,-10,-7%,-3,1.6,
COc1cccc(-c2nc(CS(=O)CC(=O)NCCc3ccc(C)cc3)c(C)o2)c1 (stereo not drawn),.,.,.,-2,-0.8,

# Going on with the list.
SMILES,Arbovirus inh,YopH inh,Mtb H37Rv,Mtb bLac sens,RecA splice inh,others
CC(NC(=O)/C(=C\c1cccc([N+](=O)[O-])c1)NC(=O)c1ccco1)C(=O)O (stereo not drawn),-1,-37,1%,5,4.5,
COc1ccc(-c2oc3c(OC)c(OC)c(OC)c(O)c3c(=O)c2OC)cc1OC,1,.,-10%,-7,-11,
CCN(Cc1nc(-c2ccc(Cl)cc2)no1)CC1CCCO1 (stereo not drawn),7,.,2%,1,9.9,
CS(=O)(=O)N(CC(=O)Nc1ccc(Br)cc1)C1CCCCC1,.,.,.,-2,-1.8,
N/C(Cc1nc(-c2ccc(Br)cc2)cs1)=N\O,-8,.,7%,3,1.1,
COc1ccc(-n2nc(C(=O)NCC(=O)NCCCN3CC(C)CC(C)C3)c3ccccc3c2=O)cc1 (stereo not drawn),.,.,.,-6,-0.5,
O=C(O)c1ccccc1C(=O)NCCCn1ccnc1,.,.,.,5,1.3,
CCCCCCSc1cc(-c2nc3ccc(Cl)cn3c2NC2CCCCC2)ccc1OC,.,.,.,7,-16,
CC1=C(C(=O)OCc2ccccc2)C(c2ccc(C#N)cc2)NC(=O)N1CCCC(=O)O (stereo not drawn),1,-27,-9%,-5,0.8,
CC(/C=C/C=C/c1ccccc1)=N/NC(=O)CNc1ccccc1C,-3,-28,1%,10,-3.6,
Cn1cccc1Cc1nnc(SCC(=O)NCc2ccco2)n1CCc1ccccc1,2,-6,2%,.,-7.4,
O=C1CC(c2ccco2)CC(O)=C1C=NCC1CCNCC1 (stereo not drawn),2,-17,1%,-16,-1.2,Arbovirus inh repeat=2
COc1cc(CNn2cn[nH]c2=S)cc(Br)c1OCc1ccccc1F,-4,.,1%,-2,3.4,
COC(=O)c1cc(C(=O)Nc2cccc(C)n2)cc([N+](=O)[O-])c1,-4,-36,12%,63,-2.7,
COc1ccc(/C(C)=N/Nc2nc3ccccc3n3cnnc23)cc1OC,.,.,-14%,-7,-1.5,
CCOc1ccc(N2C(=O)CC(N3CCC(NC(=O)Nc4ccccc4)CC3)C2=O)cc1 (stereo not drawn),7,-10,-3%,-9,-12,
CS(=O)(=O)c1ccc(C(=O)NCc2ccccc2F)cc1,5,.,-2%,-10,-2.2,
CSC1=C(C#N)C(c2sccc2C)CC(=O)N1 (stereo not drawn),-4,.,-12%,1,2.3,
Cc1ccc(OCC(=O)O/N=C(\N)Cc2ccc([N+](=O)[O-])cc2)cc1C,.,.,6%,-3,6.5,
COC(=O)CCCN=C1SCCN1Cc1ccccc1,.,.,.,0,1.9,

# Continued (4 carried over from the part before).
SMILES,Arbovirus inh,YopH inh,Mtb H37Rv,Mtb bLac sens,RecA splice inh,others
CS(=O)(=O)c1ccc(C(=O)NCc2ccccc2F)cc1,5,.,-2%,-10,-2.2,
CSC1=C(C#N)C(c2sccc2C)CC(=O)N1 (stereo not drawn),-4,.,-12%,1,2.3,
Cc1ccc(OCC(=O)O/N=C(\N)Cc2ccc([N+](=O)[O-])cc2)cc1C,.,.,6%,-3,6.5,
COC(=O)CCCN=C1SCCN1Cc1ccccc1,.,.,.,0,1.9,
COc1cc(N2CCOCC2)ncn1,0,-21,-8%,3,0.7,
CC(C)(C)c1ccc(C(=O)NC(Cc2ccccc2)C(=O)O)cc1 (stereo not drawn),2,-4,2%,1,5.2,
CC(=O)c1ccc(OCc2cc(C(=O)NCCc3ccc(Cl)cc3)no2)cc1,.,.,.,11,3.9,
COc1ccc(NC(=S)N(CCc2nc3cc(C)c(C)cc3[nH]2)Cc2cccnc2)cc1,-7,-33,1%,3,0.5,
O=C1C2C3CCCC3=C3CCCC3C2C(=O)N1c1cccc(Cl)c1 (stereo not drawn),18,-51,-1%,-4,1.3,
COc1cc(C(=O)Nc2ccc(C#N)cc2)c([N+](=O)[O-])cc1OC,-3,.,-1%,-7,-1.1,
CN(CCC#N)S(=O)(=O)c1ccc2[nH]cc(C(=O)NCCc3ccccc3)c(=O)c2c1,4,-16,3%,-3,-1.4,
COc1c(C)cccc1C(=O)NC(=S)Nc1ccccc1N1CCCC1,.,.,.,99,-0.5,
COc1ccccc1N=Nc1c(C)n[nH]c1C,.,.,.,-1,2.2,
COC(=O)c1cccc(NC(=O)C(C)(C)C)c1,.,.,-8%,-1,-0.6,
CC(=O)c1ccc(NC2c3ncccc3C(=O)N2Cc2ccc(F)cc2)cc1 (stereo not drawn),0,-4,4%,0,-0.7,
CCOC(=O)C1(C(=O)OCC)C(c2ccccc2)CC(O)N1C(C)=O (stereo not drawn),-1,.,2%,.,-2.2,
COc1cc(NS(=O)(=O)c2ccc(NC(=O)/C=C/C(=O)O)cc2)nc(OC)n1,.,.,.,14,-0.8,
